# NPYLR7 agonist: activates Aedes aegypti NPYLR7 receptor. HEK293T NPYLR7/Galpha15, GCaMP6s calcium fluorescence. activation, % at 10 µM. hit rate 0.15% among 270,000. AID 1259423; in the data active = activation above about 40%;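 note: 0% = vehicle and 100% = reference agonist at the receptor; some compounds past the cut are filed as inactive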
# NPYLR7 agonist max-min: second read-out of NPYLR7 agonist, no call of its own (marks repeat the call); activation, %; measured here: Max-Min RFU normalised activation; some inactives read as strong as hits;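 span of the calcium signal over five minutes; 0% = vehicle and 100% = native peptide agonist; compound fluorescence can raise it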
# Numbers without * were called inactive; & = joins results of further samples. This is a subset (hit frequency here may not be typical).
# A first look (five entries):
SMILES,NPYLR7 agonist,NPYLR7 agonist max-min
O=S(=O)(NCC1Cc2ccccc2O1)c1cccc2nsnc12 (stereo unspecified),12,10
CC1(c2ccccc2)CN(C(=O)c2ccncc2F)CCO1 (stereo unspecified),2,0
Cc1nn(CC(=O)N(CC(C)C)CC(C)C)c(C)c1S(=O)(=O)N(C)C,0,15
CC1(C(=O)Nc2cccc3cccnc23)CCN1C(=O)CCC1CCCC1 (stereo unspecified),2,2
O=S(=O)(Cc1ccccc1)N1CCN(C2c3ccccc3CCc3ccccc32)CC1,24,20

# This part in full, previewed entries included:
SMILES,NPYLR7 agonist,NPYLR7 agonist max-min
O=S(=O)(NCC1Cc2ccccc2O1)c1cccc2nsnc12 (stereo unspecified),12,10
CC1(c2ccccc2)CN(C(=O)c2ccncc2F)CCO1 (stereo unspecified),2,0
Cc1nn(CC(=O)N(CC(C)C)CC(C)C)c(C)c1S(=O)(=O)N(C)C,0,15
CC1(C(=O)Nc2cccc3cccnc23)CCN1C(=O)CCC1CCCC1 (stereo unspecified),2,2
O=S(=O)(Cc1ccccc1)N1CCN(C2c3ccccc3CCc3ccccc32)CC1,24,20
Cc1ccc(C)c(NC(=O)CSc2ncnc3c2oc2ccccc23)c1,-4,-6
O=C(O)CN1C(=O)C2C3CC(C2C1=O)C1C(c2ccc(Br)cc2)c2sc(=O)[nH]c2SC31 (stereo unspecified),3,1
Cc1ccnc(NC(=O)C2CCN(C(=O)C=C3CCCCC3)CC2)c1,0,24
CC(C)NC[C@H](O)COc1cccc2[nH]ccc12,-1,-21
Cc1ccc(N2C3=[N+](CCCS3)CC2(O)c2ccc(OC(F)F)cc2)c(C)c1 (stereo unspecified),13,14
Cc1cc(NC(=O)C(C)OC(=O)c2cccc(C)c2C)no1 (stereo unspecified),0,-1
CCOCCCNC(=O)CC12CC3CC(CC(C3)C1)C2,-1,-4
O=C(CCCn1ncn2c(cc3occc32)c1=O)NCCCN1CCOCC1,9,8
Cc1ccc(-c2c(=O)n(OCc3c(F)cccc3F)c3ccccc3[n+]2[O-])cc1,-3,-2
CC(C)(C)c1ccc(COn2c(=O)c(-c3ccco3)[n+]([O-])c3ccccc32)cc1,3,-9
CC(C(=O)Nc1ccccc1)N(C)Cc1ccc(Cl)cc1 (stereo unspecified),-9,-7
C=C(C)CSc1nnc2c(n1)[nH]c1ccccc12,2,21
O=C(NCCc1cccs1)c1ccc2c(=O)n(-c3ccc(F)cc3)c(N3CCCC3)nc2c1,-4,-6
O=C(NCCC1=CCCCC1)c1cncn1-c1ccc(-c2cc(C(F)(F)F)cc(C(F)(F)F)c2)cc1,5,4
CCCN(Cc1c(CC)nn(-c2ccc(F)cc2)c1N1CCN(C(C)C)CC1)C(=O)NCC(=O)OCC,10,20
COCCN(Cc1cc(NC(=O)CC(C)(C)C)ccc1N(C)C)C(=O)c1cccc(C)c1,3,9
CCOC(=O)c1ccccc1NC(=O)CSc1nc(=O)n2cc(C)ccc2n1,2,1
Cc1ccc(-n2ncc3c(=O)n(NC(=O)C(C)(C)Oc4ccc(Cl)cc4)cnc32)cc1,3,1
COc1cccc(Cc2nsc(N3CCCN(S(=O)(=O)c4ccc(Cl)c([N+](=O)[O-])c4)CC3)n2)c1,-2,0
CCOC(=O)c1cnc(-c2ccccc2)nc1NC1CCCCC1,-6,-8
COCC1CCCN(C(=O)CCc2nnc(Cc3ccc(-c4ccccc4)cc3)o2)C1 (stereo unspecified),3,1
COc1cc(NCCN(C)S(C)(=O)=O)ncn1,-14,-20
O=C(CCc1cccnc1)N1CCOC(COCc2ccccc2)C1 (stereo unspecified),-4,0
O=C(NCCc1ccccn1)C(C1CCCC1)N1CCN(C(=O)/C=C/c2ccccc2)CC1 (stereo unspecified),-2,-5
O=c1c(O)cc([C@H]2Oc3cc(O)cc(O)c3C[C@H]2O)cc2c([C@H]3Oc4cc(O)cc(O)c4C[C@H]3O)cc(O)c(O)c12,-8,-15
CCNC(=O)N1CCCC(OCc2cccc(Cl)c2)C1 (stereo unspecified),-2,-2
CN(c1ccccc1)C1CCN(C(=O)C2CCCN2S(C)(=O)=O)CC1 (stereo unspecified),6,4
CC(C)[C@@H](CO)Nc1ccc2ncc(-c3cc(C(F)(F)F)cc(C(F)(F)F)c3)n2n1,-4,-9
CC1(C)Nc2ccccc2N(CC(=O)N2CCOCC2)C1=O,12,6
COc1ccc(C2=NOC(CN(Cc3cccc(C(F)(F)F)c3)C(=O)c3cccs3)C2)cc1OC (stereo unspecified),0,6
C=CCNC(=O)c1cnc2c(-c3ccc(C(C)C)cc3)cnn2c1C,1,-1
CN(Cc1ccccc1)Cc1cc(C(=O)N(C)CC2CCCN2C)no1 (stereo unspecified),6,4
COc1ccc2[nH]c(=O)c(CN(C)Cc3snnc3C)cc2c1,1,0
COc1cc(C(=O)N2CCC(C)C3CCCCC32)ccc1OCC(N)=O (stereo unspecified),4,5
CCOC(=O)c1cn(Cc2ccccc2)c2ccccc2c1=O,1,2
COCCN(Cc1ccc(OS(=O)(=O)c2cccc(C(F)(F)F)c2)cc1)C(=O)c1ccc(Cl)cc1,3,3
O=C(c1cnn(C(=O)Nc2ccccc2)c1)c1ccccc1O,-1,-1
O=C(NCCN1CCOCC1)C1CCCN(c2nc3c(-c4ccccc4)csc3c(=O)[nH]2)C1 (stereo unspecified),-8,-10
Cc1nc2ncccn2c1C(=O)NCc1cnc2c(c1)CCC2,21,11
CC1(C)C[C@H]2C[C@@H](O)[C@H](N3CCN(c4ncccn4)CC3)[C@]2(O)CO1,1,10
CCNC(=O)C1(C)CCCN1C/C=C/c1ccccc1 (stereo unspecified),1,-1
CN(Cc1n[nH]c2c1CCCCC2)C(=O)c1csc2nc(-c3ccccc3)cn12,-9,-10
O=C(CC1=CCCCC1)N1CCCC(CNC(=O)C2(c3ccc(Cl)cc3)CC2)C1 (stereo unspecified),12,6
CN(CC(=O)Nc1ccc(F)cc1)C(=O)Cn1cc(Br)ccc1=O,5,1
COCc1cc(C)nc(OCC(=O)N/N=C\c2ccccc2)c1C#N,5,1

# The list goes on:
SMILES,NPYLR7 agonist,NPYLR7 agonist max-min
CCOC(=O)C1=C(C)N=c2s/c(=C\c3ccc(OC)c(OC)c3)c(=O)n2C1c1ccc(N(C)C)cc1 (stereo unspecified),-1,6
Nc1nnc(-c2cc3ccccc3oc2=O)s1,4,0
COc1ccccc1C(=O)Nc1cccc(NC(=O)c2c(Cl)cnn2C)c1,14,-3
Cc1ccc(F)cc1S(=O)(=O)N1CCOc2ncccc21,8,-6
Cc1noc(C)c1NC(=O)N1CCC(Cn2cc(Cc3ccccc3)nn2)CC1,20,5
O=C(CC12CC3CC(CC(C3)C1)C2)NNC(=O)C1CCCC1,1,0
CCC(C)N(CC(=O)N(CCc1ccc(OC)c(OC)c1)Cc1ccco1)C(=O)Nc1cccc(Br)c1 (stereo unspecified),-4,-2
Cc1ccc(-c2nnc(CNC(C(=O)OC(C)(C)C)C(C)C)o2)cc1 (stereo unspecified),5,-18
Oc1ccc(C=NNc2ccc(C(F)(F)F)cn2)c(O)c1,5,2
Cc1ccc(NC(=O)N2CCOCC2CC(C)C)cc1-n1cnnn1 (stereo unspecified),-4,-6
COc1cccc(C(=O)NCC2CCCN(Cc3cnc(C)s3)C2)c1OC (stereo unspecified),11&3,3&1
C=CCN(CC=C)C(=O)CSc1nc2sc3c(c2c(=O)[nH]1)CCCC3,20,8
Cc1cc(NC(=O)C(C)SCC(=O)OCC(=O)N2CCCC2=O)no1 (stereo unspecified),-4,-8
Cn1c(=O)c2c(nc(SCCc3ccccc3)n2Cc2ccccc2)n(C)c1=O,1,19
O=C(NCCCn1nc(-c2ccco2)ccc1=O)Nc1ccc(C(F)(F)F)cc1,1,1
CC(C)Cn1c(CN2C[C@H](O)[C@@H](N3CCN(C)CC3)C2)nc2ccccc21,-5,-8
COc1cccc(-c2ccc(SCC(=O)c3ccc(C)cc3)nn2)c1,1,2
CCCCCCCCC(=O)N(CCCC)CC(=O)Nc1cc(-c2ccccc2)nn1-c1ccc(OC)cc1,-4,6
NC(=O)C1CCCN(C(=O)CN2CCSc3ccc(C(F)(F)F)cc32)C1 (stereo unspecified),-17,-15
CC1CN(Cc2ccccc2)c2nc3c(c(=O)n(Cc4ccccc4)c(=O)n3C)n2C1 (stereo unspecified),3,3
CC(C)(C(=O)N1CCN(C(=O)Nc2ccncc2)CC1)c1ccccc1,2,3
CCC(C(=O)N1CCN(C(=O)CN2CCc3sccc3C2c2cccc(F)c2)CC1)c1ccccc1 (stereo unspecified),7,-3
COc1cccc(-n2nnc3c(N4CCN(C(=O)c5cc6ccccc6o5)CC4)ncnc32)c1,1,-7
O=C1OCCC1Sc1nnc(N2CCCC2)n1-c1ccccc1Cl (stereo unspecified),12,5
c1ccc(OCc2noc(COc3ccc4ncccc4c3)n2)cc1,6,2
CCCCCCn1c(SC(C)C(=O)NCC)nc2ccccc2c1=O (stereo unspecified),4,2
Cc1ccccc1CN1CCC(C(=O)Nc2ccc(Oc3cccnc3)cc2)CC1,-1,-8
Cc1ccccc1NC(=O)CN1CCN(c2ccccc2Cl)CC1,-7,-11
CON(C)c1nc(-c2cccnc2)nc2sc3c(c12)CCCC3,2,0
CC(c1ccccc1)N(Cc1cc(NC(=O)C2CCCC2)ccc1N(C)C)C(=O)c1ccc(F)cc1 (stereo unspecified),18,18

# Given with each value named: 4 of the compounds above.
smiles: CC(c1ccccc1)N(Cc1cc(NC(=O)C2CCCC2)ccc1N(C)C)C(=O)c1ccc(F)cc1 (stereo unspecified)
  NPYLR7 agonist = 18 | NPYLR7 agonist max-min = 18

smiles: Cc1ccccc1CN1CCC(C(=O)Nc2ccc(Oc3cccnc3)cc2)CC1
  NPYLR7 agonist = -1 | NPYLR7 agonist max-min = -8

smiles: Cc1ccccc1NC(=O)CN1CCN(c2ccccc2Cl)CC1
  NPYLR7 agonist = -7 | NPYLR7 agonist max-min = -11

smiles: COc1cccc(-n2nnc3c(N4CCN(C(=O)c5cc6ccccc6o5)CC4)ncnc32)c1
  NPYLR7 agonist = 1 | NPYLR7 agonist max-min = -7

# Other compounds.
SMILES,NPYLR7 agonist,NPYLR7 agonist max-min
O=C(CSc1nc2c(c(=O)n1Cc1ccccc1)SCC2)c1ccccc1,0,-7
Cc1ccc(CCC2CCN(C(=O)Nc3cccnc3)CC2)cc1,0,-1
COc1ccc(Cl)cc1Nc1nc(-c2cc3cccc(OC)c3oc2=O)cs1,-11,-14
Cc1ccc(-c2ccc(NC3CCCCC3C)nn2)cc1S(N)(=O)=O (stereo unspecified),-13,-19
CC(=O)NCCCCCC(=O)N(C)Cc1ccc(N(C)C)cc1,5,8
Cc1ccc(S(=O)(=O)NCC(C)n2nc(C)cc2C)cc1 (stereo unspecified),5,1
O=C(O)C(Cc1ccccc1)N1C(=O)c2cccc3cccc(c23)C1=O (stereo unspecified),5,2
C/C1=C/CC(C)(C)/C=C/C/C(C)=C/CC1,-7,-13
Cc1n[nH]c(C)c1C(C)N(C)C(=O)CSCc1ccccc1Cl (stereo unspecified),2,-1
COCCCN(C(=O)Nc1ccccc1SC)C1CCN(C)CC1,5,0
Cc1cccc(-n2c(SC(C)C#N)nnc2-c2c[nH]c3ccccc23)c1 (stereo unspecified),1,18
CCCSc1ncccc1C(=O)N(CCOC)Cc1nc2ccccc2o1,2,-2
O=C(c1cc2n(n1)CCN(Cc1cccc(Cl)c1)C2=O)N1CCC(Cc2ccccc2)CC1,-7,9
COc1cn2c(cc1=O)C(=O)N(CCNC(=O)c1ccccc1SC(F)F)CC2,16,5
Cc1nc(SCc2ccc(C(=O)O)cc2)nc(N2CCN(C/C=C/c3ccccc3)CC2)c1C,11,23
FC(F)(F)c1n[nH]c(=S)n1N=Cc1ccco1,3,9
CCCN(CC1CC(c2cccc(F)c2)=NO1)C(=O)c1cccs1 (stereo unspecified),-5,4
CCOC(=O)CCn1c(=O)c2c(nc3n(-c4cc(C)cc(C)c4)c(C)cn23)n(C)c1=O,-5,-5
CN(CC(=O)N1CCc2ccccc2C1)Cc1cccc(OC(F)F)c1,1,-4
O=C1CNC(=S)N1c1ccc(Cl)cc1,-1,-1
COc1ccccc1-n1c(Cc2ccccc2)nnc1SCc1nc(C(=O)Nc2ccc(C)c(C)c2)cs1,12,9
CCCn1c(=O)c2sc(N3CCCC3)nc2n(CC(=O)Nc2ccc(N(CC)CC)cc2C)c1=O,-2,-1
NC1CCCC(C(F)(F)F)C1 (stereo unspecified),0,-1
O=C(NC1CCCC1)c1cc(NCc2ccnc3ccccc23)cc2[nH]ncc12,22,15
COc1cc2c(cc1-c1nccn1Cc1ccc(Cl)s1)OCO2,2,-1
C#Cc1cccc(C(=O)N2CC(=O)N(C3CCCCC3)CC(OCc3ccncc3)C2)c1 (stereo unspecified),10,3
CCc1nn2c(ncc3c(=O)n(-c4ccccc4OC)ccc32)c1-c1ccccc1,0,4
